CSC inhib – blocks cancer stem cells; AID 2717; cancer stem cell-like cells viability, luminescence; actives 1.1% (n = 300,000); inhibition, % at 7.5 µM;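 active means mean at 75% or more and at least half the replicates too; inconclusive means mean and replicates disagree; tested in HMLE shEcad cells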;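 further: 0% = median of negative and 100% = median of positive control wells; the first replicate is given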
Yeast UUG start – modulators of start codon recognition fidelity in yeast; actives 0.13% (n = 350,000); S. cerevisiae UUG-firefly luciferase reporter, luminescence/redox ratio; activity score, % at 18.7 µM;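 active means replicate mean at a twofold rise or more, about +100% in these data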;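 further: firefly luciferase made from a UUG start codon reports start codon fidelity; reporter light over untreated wells divided by growth signal over untreated wells; some hits fall short of that in this replicate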
MT1-MMP act inh – inhibitors of human MT1-MMP activation | HT1080 RFP-PRO-GFP cells, GFP/RFP ratio fluorescence, overnight; percent of plate control window, DMSO zero | actives 0.061% (n = 360,000) | AID 651647 | GFP/RFP ratio change, % at 20 µM;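 active means GFP/RFP ratio change of at least 30% with cell ATP level not reduced by more than half and red fluorescence within 50% of control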; further: strong numbers were not always called active
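Test system: HT1080 RFP-PRO-GFP cells; Benchmarks: DMSO and RFP-L50D-GFP cell wells; Timing: cells overnight before dosing, compound overnight, 37 °C, 5% CO2; Compound: one 20 µM compound dose with 1% DMSO; Read-out: GFP/RFP fluorescence ratio.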
Rce1 inhib – yeast Ras-converting enzyme inhibition. Q03530. yeast membranes, quenched prenylated peptide cleavage fluorescence. calls only. actives 0.27% (n = 290,000). AID 2563;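 active means fall in fluorescence gain of 50% or more versus controls, with final raw signal at or below 3038400; inconclusive means same 50% fall but final raw signal above 3038400; inactive means fall in fluorescence gain under 50%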;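 further: plate controls were neutral control wells for no effect and wells lacking membranes for full effect; tested at 10 µM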
HIV Env fusion – inhibitors of HIV Env-mediated cell fusion; actives 1.1% (n = 360,000); AID 651610; HeLa-JRFL Env/CEM21 cell fusion, luciferase; inhibition, % at 12.3 µM;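 active means mean replicate inhibition score of at least 50 and every replicate individually at or above 50; inconclusive means only one of the two criteria met; inactive means mean below 50 and not all replicates reaching 50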;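 further: 0% = plate neutral controls and 100% = maraviroc near 300 nM; one replicate is shown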
PABP FP inh – PABP-poly(A) binding inhibition | P11940 | PABP-poly(A) RNA binding, fluorescence polarization | actives 1% (n = 290,000) | inhibition, % at 35 µM;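 active means 50% or more with normal probe brightness, or confirmed in later tests; inconclusive means above 50% with abnormal brightness, or retests that disagree; inactive means below 50% or failed in later tests; about a fifth of its hits are not listed in these tables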;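 further: calls also rest on retests at 20 µM and on dose response follow-up; controls were probe without protein and protein plus probe with vehicle; some compounds called inactive have numbers as strong as hits; many hits fall short of the cut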
Target sequence (P11940 whole entry, looked up): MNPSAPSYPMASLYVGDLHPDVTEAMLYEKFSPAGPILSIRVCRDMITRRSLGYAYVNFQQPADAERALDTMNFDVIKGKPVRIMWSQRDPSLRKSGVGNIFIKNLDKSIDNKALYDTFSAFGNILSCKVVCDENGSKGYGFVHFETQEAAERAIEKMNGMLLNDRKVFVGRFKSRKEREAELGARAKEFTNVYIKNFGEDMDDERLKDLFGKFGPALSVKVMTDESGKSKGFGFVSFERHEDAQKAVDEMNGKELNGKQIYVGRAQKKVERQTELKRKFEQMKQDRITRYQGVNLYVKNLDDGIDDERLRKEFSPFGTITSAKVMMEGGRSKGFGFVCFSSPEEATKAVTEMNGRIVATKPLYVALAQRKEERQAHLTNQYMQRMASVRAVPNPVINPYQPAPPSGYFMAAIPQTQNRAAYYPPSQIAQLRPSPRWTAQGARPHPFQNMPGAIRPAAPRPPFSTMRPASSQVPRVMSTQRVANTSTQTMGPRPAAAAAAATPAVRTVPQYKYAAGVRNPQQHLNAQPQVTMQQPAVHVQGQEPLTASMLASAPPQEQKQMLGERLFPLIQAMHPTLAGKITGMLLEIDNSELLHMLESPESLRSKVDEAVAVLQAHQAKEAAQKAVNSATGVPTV
eIF4H FP inh – inhibitors of RNA binding by human eIF4H | AID 2012 | eIF4H fluorescence polarization binding assay | inhibition, % at 35 µM | actives 0.94% (n = 290,000) | Q15056;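 active means 50% or more with normal probe brightness, or confirmed in later tests; inconclusive means above 50% with abnormal brightness, or retests that disagree; inactive means below 50% or failed in later tests; about a fifth of its hits are not listed in these tables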;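 further: calls also rest on retests at 20 µM and on dose response follow-up; 0% = protein and probe with vehicle and 100% = probe without protein; strong numbers were not always called active; many hits fall short of the cut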
eIF4H FP inh retest – also measured in eIF4H FP inh; calls as there; inhibition, %; compound at 20 µM; confirmation average;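 mean of two retest wells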
PABP FP inh retest – recorded beside PABP FP inh, whose call it bears; inhibition, %; compound at 20 µM; confirmation repeats;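 mean of two retest wells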
MT1-MMP act inh RFP – further read-out of MT1-MMP act inh, marked with its call; RFP signal change, %; measured here: RFP expression control read;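 0 = vehicle wells; hits needed this value within 50% of zero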
Active calls of the source: *; i = inactive; ? = inconclusive; . = not tested or not shown.

SMILES | CSC inhib | Yeast UUG start | MT1-MMP act inh | MT1-MMP act inh RFP | Rce1 inhib | HIV Env fusion | PABP FP inh | eIF4H FP inh | others
CSc1nc(O)c(C(c2ccc(F)cc2)c2c(O)nc(SC)[nH]c2=O)c(=O)[nH]1 | . | -3.0 | -1.4 | 0.8 | i | 1.4 | . | .
O=C(c1ccco1)N1CCN(Cc2cccc(F)c2)CC1 | -5.0 | -36.1 | -2.2 | 4.2 | i | 10.9 | -0.2 | -4.4
Cc1ccc(CN2CCN(Cc3ccncc3)CC2CCO)o1 (stereo not given) | 12.9 | -16.4 | 1.5 | 4.8 | i | 11.9 | -11.7 | 4.5
CCOC(=O)Cc1c(C)nc(SC)[nH]c1=O | -13.5 | . | -1.5 | -1.0 | i | 5.2 | -3.4 | -0.9
CCOC(=O)CSc1nnc(-c2ccc(OC)cc2)n1CC | . | -20.0 | 0.9 | 3.9 | i | 4.8 | 4.8 | 5.2
O=C(O)c1cc(Nc2cc(Cl)c3nonc3c2[N+](=O)[O-])ccc1O | 4.0 | 7.5 | 8.2 | 2.6 | i | -11.9 | 32.2 | -1.7
C=C(C)Cn1c(SCCN2CCOCC2)nc2c1c(=O)[nH]c(=O)n2C | . | 6.9 | 1.7 | 7.8 | i | -8.3 | 3.1 | 4.1
CCCn1nnc(NC(=O)c2ccc(Br)o2)n1 | -2.3 | 3.8 | -3.7 | 5.6 | i | -38.3 | -2.3 | -2.5
O=C(N/C(=C/c1ccco1)C(=O)N1CCCC1)c1cccs1 | -11.2 | -16.4 | -6.0 | 3.0 | i | -15.6 | 55.3 | 50.7 | eIF4H FP inh retest=27.1;PABP FP inh retest=46.6
COC(=O)CSc1nnc(NC(=O)C2CC(=O)N(c3ccc(F)cc3)C2)s1 (stereo not given) | -7.1 | -5.9 | -3.2 | 5.1 | i | -1.0 | -5.4 | 0.4
COc1ccc(CN2CC(C(=O)NCCC(C)C)CC2=O)cc1 (stereo not given) | -0.2 | . | -3.0 | -0.6 | i | -8.6 | 3.2 | 5.9
CN(c1cccc(NS(=O)(=O)c2ccccc2)c1)S(C)(=O)=O | 0.7 | . | -2.9 | -0.4 | i | -4.9 | 1.4 | -17.0
O=C(NC1CCCCC1)C1CCN(c2cnccn2)CC1 | 2.7 | -20.4 | 0.0 | -4.5 | i | -19.1 | -8.9 | -3.4
COc1ccc(-c2cc(C)no2)cc1S(=O)(=O)Nc1ccccc1 | 43.2 | 4.1 | 2.0 | -5.4 | i | -27.8 | -2.6 | -11.5
Cc1ccc2nc(N3CCN(CCO)CC3)nc(-c3ccccc3)c2c1 | -4.0 | -27.7 | -4.3 | -4.1 | i | -10.9 | 2.5 | 1.8
CCOC(=O)N1CCC(n2c(SCC(=O)c3ccccc3)nc3ccsc3c2=O)CC1 | -10.1 | -17.9 | -7.9 | -12.2 | i | 14.6 | 8.1 | -0.9
COC(=O)c1cc(C)nc2c1c(C)nn2-c1ccccc1 | . | -1.1 | -2.7 | 0.6 | . | 7.4 | . | .
CC(=O)OC12CC3CC(C1)C(=NO)C(C3)C2 | -8.1 | -10.7 | 5.2 | 8.0 | i | . | -8.8 | -3.0
O=C(COC(=O)c1cc[n+]([O-])cc1)NCC12CC3CC(CC(C3)C1)C2 | -6.2 | 1.4 | -3.0 | -0.2 | . | . | 3.6 | 0.5
Cc1ccc(S(=O)(=O)CCC(=O)Nc2sccc2C(N)=O)cc1 | 0.6 | -3.4 | -0.3 | 1.3 | . | -13.6 | . | .

Retrieved by structure from the entries so far, two records:
SMILES | CSC inhib | Yeast UUG start | MT1-MMP act inh | MT1-MMP act inh RFP | Rce1 inhib | HIV Env fusion | PABP FP inh | eIF4H FP inh | others
Cc1ccc(S(=O)(=O)CCC(=O)Nc2sccc2C(N)=O)cc1 | 0.6 | -3.4 | -0.3 | 1.3 | . | -13.6 | . | .
Cc1ccc(CN2CCN(Cc3ccncc3)CC2CCO)o1 (stereo not given) | 12.9 | -16.4 | 1.5 | 4.8 | i | 11.9 | -11.7 | 4.5

The results go on:
SMILES | CSC inhib | Yeast UUG start | MT1-MMP act inh | MT1-MMP act inh RFP | Rce1 inhib | HIV Env fusion | PABP FP inh | eIF4H FP inh | others
O=C(CSc1ccc(Cl)cc1)Nc1nnc(-c2ccco2)o1 | 0.4 | -13.5 | -0.4 | 2.0 | i | -1.9 | . | .
CCOC(=O)N1CCN(C(=O)c2ccc(N3CC4CC(C3)c3cccc(=O)n3C4)c(NC(=O)c3ccc(F)cc3)c2)CC1 (stereo not given) | -13.9 | 13.1 | -4.2 | -1.1 | i | -1.4 | -1.7 | -21.9
CCN(CC)C(=O)CN1CCC(c2nc3cc(C)c(C)cc3[nH]2)CC1 | -10.7 | 0.9 | -12.8 | -7.0 | i | 9.5 | 5.1 | -6.5
Cc1ccccc1-n1nc(-c2ccc(N)cc2)cc1N | 3.3 | -13.9 | 0.9 | 5.3 | i | . | 9.4 | -5.2
COc1ccccc1CNC(=O)CCCNS(=O)(=O)c1cccc2nsnc12 | -3.8 | -9.5 | -2.0 | -1.9 | i | -72.5 | 4.7 | -0.1
Cc1ccc(-c2ccc(=O)n(CC(=O)NCCN3C(C)CCCC3C)n2)cc1 (stereo not given) | 0.7 | 4.8 | -8.4 | 2.2 | i | . | -8.2 | -7.4
CC(C)N(Cc1ccccc1)C(=O)COC(=O)c1cnc(Cl)c(Cl)c1 | . | -15.9 | -5.3 | -6.4 | . | -14.4 | . | .
COc1ccc(CCNC(=O)c2oc3ccc(S(=O)(=O)N4CCOCC4)cc3c2C)cc1OC | -16.4 | -5.2 | 2.7 | -4.5 | i | 8.2 | -2.5 | -8.8
O=C(CSC1=NCCS1)N1CCCC1 | -0.8 | -4.6 | 2.5 | 2.7 | i | . | 1.8 | 5.1
COc1ccccc1/C=C/C(=O)OCC(=O)Nc1c(C)nn(-c2ccccc2)c1C | -8.4 | 3.5 | -0.5 | -2.3 | . | . | . | .
CC(NS(=O)(=O)c1ccc(Br)cc1)C(=O)NCCc1ccccc1 (stereo not given) | -12.0 | 7.7 | 3.2 | 3.8 | i | 18.4 | 9.1 | -7.2
COc1ccc(N2C(=O)/C(=C3/C=CC=CN3C)SC2=S)cc1 | -17.3 | . | -1.9 | -1.6 | i | -6.1 | -5.5 | 3.0
CCCc1nc2ccc(N)cc2c(=O)n1Cc1ccccc1Cl | 0.5 | -13.3 | 0.4 | 4.5 | i | -1.5 | -9.1 | -6.5
c1ccc(CCNc2ncnc3c2nnn3Cc2ccccc2)cc1 | -9.6 | 5.9 | 3.5 | -2.9 | i | -35.1 | -3.8 | -7.3
O=C1NC(=O)C(c2ccccc2)N1 (stereo not given) | . | -14.6 | -2.4 | 1.1 | . | 9.6 | . | .
CC1CCCC(C)N1C(=O)COC(=O)C1CCN(S(=O)(=O)c2c(Cl)cccc2Cl)CC1 (stereo not given) | 34.4 | 14.8 | 4.7 | -0.4 | i | 12.8 | . | .
CCc1nc2ccc(C(=O)N(CC)CCN(C)C)cn2c1N(C)Cc1ccc(OC)cc1 | . | 4.4 | -0.9 | 2.0 | . | 1.1 | . | .
CN(CCCC(=O)Nc1ccccc1)S(=O)(=O)c1ccc(Cl)cc1 | 4.1 | -9.2 | 7.1 | -1.8 | i | 4.2 | -7.7 | -3.0
Cc1cccc(C(=O)N2CC(=O)Nc3ccc(F)cc3C2c2ccc(F)cc2)c1 (stereo not given) | -4.4 | -4.8 | -9.2 | -2.8 | i | 14.4 | -0.2 | 10.5
O=C(Nc1nc([C@@H]2O[C@H](CO)[C@@H](O)[C@H](O)[C@H]2O)cs1)NC(c1ccccc1)c1ccccc1 | . | -19.9 | -1.1 | 8.1 | . | 0.2 | . | .
OCCCNc1nc(-c2ccc(Cl)cc2)nnc1-c1ccccc1 | -5.9 | -11.7 | 1.8 | -0.3 | i | -14.8 | 6.4 | 2.1
O=C1c2ccc(Oc3ccc([N+](=O)[O-])cc3)cc2C(=O)N1CCCO | -4.2 | -17.4 | 2.4 | -3.1 | i | -3.8 | -4.3 | 8.2
O=C(Nc1ccc2c(c1)OCO2)Nc1ccc(F)cc1F | 7.8 | -27.9 | -2.1 | -4.3 | i | -20.9 | 1.2 | -8.2
c1ccc2c(NC3C4CC5CC(C4)CC3C5)nc(N3CCOCC3)nc2c1 (stereo not given) | 9.8 | . | 1.4 | -1.5 | i | 29.3 | -5.9 | -1.0
CC(=O)c1ccc(NC(=O)CSc2nccn2CCc2ccccc2)cc1 | -2.3 | -18.5 | 3.5 | 2.1 | i | -16.9 | -2.3 | -5.2
Cc1cccc(-n2cnc(C(=O)N3CCN(C)CC3)c2)n1 | -16.7 | -11.6 | -2.2 | 0.6 | i | -2.1 | -10.2 | 2.5
C=CCn1c(-c2c[nH]c3ccccc23)n[nH]c1=S | 1.7 | -12.8 | 1.6 | 3.7 | i | -132.4 | 4.7 | -2.9
CCc1ccccc1OCCCCN1CCCC1 | -8.8 | -8.3 | -0.8 | -0.7 | i | . | 4.9 | 1.3
CCOc1ccc2[nH]c(=O)c(CN(CCc3ccccc3)C(=O)N3CCCC3)cc2c1 | -7.7 | . | -13.9 | -7.8 | . | -79.5 | -6.9 | -12.9
COc1ccc([C@@H]2CC=C(C(=O)O)[C@H](c3ccccc3F)N2S(=O)(=O)c2ccccc2C)cc1 | -0.5 | -12.4 | -2.4 | -3.6 | . | -27.8 | . | .
C=CCn1c(SCC(=O)Nc2ccc(S(N)(=O)=O)cc2)nnc1-c1cnccn1 | -8.4 | -9.5 | -1.0 | 0.7 | i | -1.0 | -2.5 | -8.3
Cc1ccn2cc(-c3cccc(NC(=O)c4cccs4)c3)nc2c1 | -1.0 | . | 2.8 | -6.0 | i | -35.6 | 1.2 | -1.6
CN(CC(=O)O)S(=O)(=O)c1cccs1 | -10.6 | -8.7 | -1.3 | 0.9 | i | 10.1 | 8.4 | -6.6
CCCC12CN3CCN(CC(C3)/C1=N\NC(=O)c1ccc(C(C)(C)C)cc1)C2 | -10.4 | . | 0.2 | 8.0 | i | 18.4 | -4.4 | -3.6
CCN1C(=NCc2ccco2)N[C@@H](c2cccc(F)c2)C(C(=O)OC)=C1C | -1.0 | -4.6 | -2.8 | 0.0 | i | -13.8 | 43.0 | 0.4
O=C(CSc1ncnc2c1cnn2-c1ccccc1)NC1CCCC1 | 0.0 | . | 0.9 | -31.4 | i | -20.7 | . | .
CN(C)CCCCNCCCNC(=O)/C=N\O | -3.6 | -18.1 | 4.8 | 7.9 | i | . | 22.3 | 1.3
COC(=O)C1=C(C)NC(c2c(O)ccc3ccccc23)C(C(=O)OC)=C1C (stereo not given) | 2.7 | . | 2.8 | 3.2 | i | -107.4 | -6.9 | 1.9
c1ccc(C[C@H]2CNCCN2CCC23CC4CC(CC(C4)C2)C3)cc1 | 3.3 | -1.7 | 0.5 | -1.0 | i | . | . | .
COC(=O)c1cncn1Cc1ccccc1 | . | -13.9 | 4.7 | 7.1 | . | -13.3 | . | .
CCOC(=O)N1CCN(C(=O)c2ccc(N3CCCC3=O)cc2)CC1 | -5.0 | -5.2 | 5.3 | 5.8 | i | . | -11.7 | -6.5
Cc1[nH]ncc1-c1ccccc1Cl | -3.0 | -5.9 | -3.9 | -2.5 | i | 0.5 | -9.9 | 0.2
COc1cc(C2NC(=O)C(C#N)=C(S)N2c2ccccc2)ccc1OC(C)C (stereo not given) | -18.1 | -23.7 | 1.9 | 4.9 | i | . | -12.9 | -4.5
OC1(c2cccc(C(F)(F)F)c2)CCN(c2ncnc3c2[nH]c2ccccc23)CC1 | 28.0 | 9.4 | 23.8 | -11.0 | i | ? | . | .

Compound activity (PubChem BioAssay)

Only part of the results is shown; the hit share may differ from the screen's.
